CapD inh = Bacillus anthracis CapD inhibitors, primary screen, biochemical, fluorescence intensity; actives 0.23% (n = 140,000); z-score (test concentration not listed); purified CapD enzyme, fluorescence intensity read-out; hits give low values; some hits fall short of the stated cut; CapD gamma-glutamyltranspeptidase (Bacillus anthracis Ames Ancestor);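 active = z-score under -4 in either of two replicates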;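 also: stock transfer was 100 nL into about 40 µL; score is relative to mean and spread of the plate; one replicate is shown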
AID504770 = growth inhibition of E. coli YBA685, primary screen, V. cholerae RctB inhibitors. z-score (concentration not given with the values). actives 0.27% (n = 130,000). E. coli YBA685 rctB-dependent plasmid, OD600 growth, 3 h; hits give low values. AID 504770, 2011;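 active = z-score under -2 on both plates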;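 also: wells of about 30 µL received 100 nL stock; score is relative to mean and SD of the test wells; the first replicate is given; strong numbers were not always called active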
* = called active by the depositor; i = inactive; · = no result given.

no. | SMILES | CapD inh | AID504770
1 | S=C(N/N=C/c1ccco1)NC1CC2CCC1C2 (stereo unspecified) | -1.72 | 2.45
2 | CCCN(Cc1nnc(-c2ccco2)o1)C(=O)CN1C(=O)COc2ccccc21 | · | 0.35
3 | CCN(CC)S(=O)(=O)c1ccc(C(=O)Nc2c3c(nn2-c2ccc(Cl)cc2)CS(=O)(=O)C3)cc1 | -0.8 | ·
4 | CCOC(=O)CCn1cc(F)c(=O)[nH]c1=O | 64.3 | -1.2
5 | CCCC1NC(=O)NC(C)=C1C(=O)OCC (stereo unspecified) | 0.365 | -0.45
6 | CCOC(=O)c1ccc2nc(NC(=O)C3CCCCC3)sc2c1 | i | 1.65
7 | C/C(=N\S(=O)(=O)c1ccc(C)cc1)N1CCCN(S(=O)(=O)c2ccc(C)cc2)C1C(C)C (stereo unspecified) | 7.92 | -0.45
8 | Cc1cc(C)n(-c2ccc(Cl)c(C(=O)OCc3ccccc3)c2)n1 | -0.82 | 2.35
9 | CNC(=S)NNc1ncc(C(F)(F)F)cc1Cl | · | -0.25
10 | CC(c1ccccc1)C1CC(=O)N(c2ccc(OC(F)(F)F)cc2)C1=O (stereo unspecified) | 0.165 | 0
11 | O=C(Nc1ncc(Cc2ccccc2)s1)C1CCCO1 (stereo unspecified) | · | 1.65
12 | O=C(O)CCP(=O)(O)CN1CCCCCC1 | -0.475 | -0.65
13 | O=C(O)C1CSC2(CCCCC2)N1 (stereo unspecified) | 1.14 | 0.2
14 | Cc1ccc(S(=O)(=O)c2ccc(/C=C/c3ccco3)cc2)cc1 | 32.4 | -0.5
15 | CC1=C(C(=O)NC2CCCCCC2)C2(CCCCCC2)OC1=O | 0.255 | 0.4
16 | O=C(CN1C(=O)NC2NC(=O)NC21)N/N=C/c1ccccc1O (stereo unspecified) | 0.715 | -0.1
17 | COC(=O)COc1ccc(C)cc1-n1nc2ccccc2n1 | · | -0.9
18 | COC(=O)c1cc(-c2ccc(Cl)cc2)n(-c2ccc(Cl)cc2Cl)n1 | 0.105 | ·
19 | COc1cc2c(cc1O)CC1c3c(c(OC)c(OC)c(OC)c3-2)CCN1C (stereo unspecified) | -0.245 | 2.25
20 | CC(C)(C)c1ccc(-c2n[nH]c(=S)n2N=Cc2ccccn2)cc1 | -0.68 | -0.25
21 | COc1c2ccoc2nc2c(OC)c(OC3OC(C)C(O)C(O)C3O)ccc12 (stereo unspecified) | 71.5 | -1
22 | Cc1cccc2cc3c(nc12)-c1ccccc1C3=O | 0.255 | ·
23 | CC1(C)CC(=O)C2=C(C1)c1c(ccc3ccccc13)NC2c1ccc(-c2ccccc2Cl)o1 (stereo unspecified) | 22.2 | ·
24 | Cc1onc(-c2ccccc2Cl)c1NC(=O)NCCc1ccncc1 | 0.2 | 1
25 | O=C1/C(=C/c2ccc(-c3ccc(Br)cc3)o2)C=C(c2ccccc2)N1c1ccc2ncccc2c1 | 0.175 | ·
26 | CC(C)=C1C2C=CC1C1C(=O)N(CCO)C(=O)C21 (stereo unspecified) | · | -0.4
27 | COc1ccc(-c2ccc(C3C(C#N)=C(N)OC4=C3C(=O)CCC4)o2)cc1 (stereo unspecified) | 0.36 | 0.95
28 | CCc1ccc(NC(=O)c2cc3c(=O)oc4ccc(C)cc4c3s2)cc1 | 0.915 | 0.15
29 | NCCSc1nc2ccccc2[nH]1 | -0.65 | 1.35
30 | CCN(Cc1ccc(OCc2cccs2)c(OC)c1)C(=O)c1cc(C)oc1C | · | 0
31 | O=C(Cc1ccccc1F)Oc1ccc(-c2nnco2)cc1 | · | 1
32 | COC(=O)c1c(C)oc2cc(C)c(NS(=O)(=O)c3cccs3)cc12 | · | -0.35
33 | Fc1ccccc1-c1ncc(-c2ccc(Br)cc2)o1 | 16.9 | 1
34 | COc1ccccc1C(=O)OCC(=O)C(C)(C)C | 0.16 | -0.9
35 | Cc1ccc(-c2n[nH]c(=O)c3ccccc23)cc1S(=O)(=O)Nn1cnnc1 | -0.305 | ·
36 | COc1ccc2cc(/C(C)=N/OC(=O)Nc3ccccc3)ccc2c1 | 0.525 | ·
37 | CC(C)NC(=O)CC1OC(=O)c2ccccc21 (stereo unspecified) | -0.29 | -0.55
38 | COc1cc(C2C(C(=O)OCc3ccccc3)=C(C)NC3=C2C(=O)CC(c2cccs2)C3)cc([N+](=O)[O-])c1O (stereo unspecified) | -0.17 | ·
39 | CCN(CC)c1ccc(/C=N/NC=O)c(O)c1 | · | -0.1
40 | CCOc1cc(C2C(C#N)=C(N)Oc3c2c(=O)oc2ccccc32)ccc1OC(=O)c1cccs1 (stereo unspecified) | 0.85 | ·
41 | Cc1ccc(S(=O)(=O)N(CC(O)CN(Cc2ccccc2)Cc2ccccc2)c2cccc([N+](=O)[O-])c2)cc1 (stereo unspecified) | -0.01 | ·
42 | CCN1C(=O)NC(=O)/C(=C\c2cn(CC(=O)NCC3CCCO3)c3ccccc23)C1=O (stereo unspecified) | 8.12 | -0.1
43 | COc1ccc(C(C2=C(O)CC(C)(C)CC2=O)C2=C(O)CC(C)(C)CC2=O)cc1OC | 0.095 | ·
44 | COc1ccc(Cl)cc1NC(=O)c1cc(-c2ccco2)on1 | 0.45 | 0.7
45 | OCCn1c(-c2ccccc2)cn2c3ccccc3nc12 | 5.43 | -1
46 | CC1CC(C)CN(C(=O)c2cccc3c2-c2ccccc2C3=O)C1 (stereo unspecified) | · | -1.05
47 | CC(O)Cn1c2ccccc2c2ccccc21 (stereo unspecified) | 25.6 | 0.85
48 | CCC(=O)Nc1ccc(NC(=O)c2ccc(F)cc2)nc1 | · | -1.1
49 | COc1ccc2nc3oc(C(=O)NCc4ccco4)cc3cc2c1 | -0.21 | ·
50 | CC(C)CC(=O)NN(C)c1nc(-c2ccccc2)nnc1C(F)(F)F | -0.635 | ·
51 | CCN(CC)CC1OCC2(CO1)COC(CN(CC)CC)OC2 (stereo unspecified) | · | 0.6
52 | Cc1ccc(C(=O)NC(CC(C)C)C(=O)O)cc1 (stereo unspecified) | -0.45 | 0.1
53 | N#C/C(=C(/O)c1cccc2ccccc12)c1nc2ccccc2[nH]1 | 0.63 | 0.45
54 | COc1ccc(O)c(C(=O)c2cnn(C(=O)c3ccc4c(=O)n5c(nc4c3)CCC5)c2)c1 | · | -0.25
55 | CCc1ccccc1Nc1nc(N)nc(Cn2cnc3ccccc32)n1 | · | -1.05
56 | CC(C)(C)NC(=O)Cn1nc(-c2cc3c(s2)CCCC3)oc1=O | · | 0.05
57 | CCCCc1ccc(NC(=S)N2CCC(C(=O)OCC)CC2)cc1 | -0.3 | ·
58 | CCOC(=O)C1=C(C)N=c2s/c(=C\c3cc(Br)cc(OC)c3O)c(=O)n2C1c1ccc(OC)cc1 (stereo unspecified) | -2.47 | ·
59 | O=C(COC(=O)c1ccccc1)Nc1ccc(OC(F)F)cc1 | · | -0.15
60 | COC(=O)CCn1c(=O)c2cccn2c2ccccc21 | 0.47 | -0.25

Looked up above:
CC(C)(C)NC(=O)Cn1nc(-c2cc3c(s2)CCCC3)oc1=O – AID504770: 0.05
CC(C)CC(=O)NN(C)c1nc(-c2ccccc2)nnc1C(F)(F)F – CapD inh: -0.635
Cc1ccc(-c2n[nH]c(=O)c3ccccc23)cc1S(=O)(=O)Nn1cnnc1 – CapD inh: -0.305
CCN(CC)CC1OCC2(CO1)COC(CN(CC)CC)OC2 (stereo unspecified) – AID504770: 0.6
CC(C)NC(=O)CC1OC(=O)c2ccccc21 (stereo unspecified) – AID504770: -0.55
O=C(Cc1ccccc1F)Oc1ccc(-c2nnco2)cc1 – AID504770: 1

The listing picks up, starting seven compounds before the break.
no. | SMILES | CapD inh | AID504770
54 | COc1ccc(O)c(C(=O)c2cnn(C(=O)c3ccc4c(=O)n5c(nc4c3)CCC5)c2)c1 | · | -0.25
55 | CCc1ccccc1Nc1nc(N)nc(Cn2cnc3ccccc32)n1 | · | -1.05
56 | CC(C)(C)NC(=O)Cn1nc(-c2cc3c(s2)CCCC3)oc1=O | · | 0.05
57 | CCCCc1ccc(NC(=S)N2CCC(C(=O)OCC)CC2)cc1 | -0.3 | ·
58 | CCOC(=O)C1=C(C)N=c2s/c(=C\c3cc(Br)cc(OC)c3O)c(=O)n2C1c1ccc(OC)cc1 (stereo unspecified) | -2.47 | ·
59 | O=C(COC(=O)c1ccccc1)Nc1ccc(OC(F)F)cc1 | · | -0.15
60 | COC(=O)CCn1c(=O)c2cccn2c2ccccc21 | 0.47 | -0.25
61 | COc1cc(CN(C)Cc2ccccc2)cc(OC)c1O | · | 0.85
62 | CC(=O)OCC1OC(OC(C)=O)C(NC(=O)C(C)C)C(OC(C)=O)C1OC(C)=O (stereo unspecified) | · | 2
63 | O=C(c1ccc(F)cc1)c1cc2cc([N+](=O)[O-])ccc2o1 | 0.035 | ·
64 | Cc1cn(C2CC(NC(=O)C(C)(C)C)C(CO)O2)c(=O)[nH]c1=O (stereo unspecified) | -0.535 | 2.15
65 | O=C(CSc1nc2ccccc2c(=O)n1-c1ccccc1)N1CCCCC1 | -0.385 | -0.95
66 | O=C(Nc1ccccn1)c1cc(-c2ccccc2)c(C(F)(F)F)s1 | -0.075 | -0.75
67 | Cc1cc(C(=O)COC(=O)C23CC4CC(CC(C4)C2)C3)c(C)n1-c1nccs1 | · | -0.2
68 | O=C(c1ccccc1)N1c2ccccc2OC1c1ccc2c(c1)OCO2 (stereo unspecified) | 1.1 | -0.5
69 | CC(C)Oc1cccc(C(=O)Nc2ccccc2)c1 | 0.03 | -1
70 | COc1ccccc1NC(=O)Cc1nc(CSc2nncn2C(C)C)cs1 | · | 1.9
71 | N#C/C(=C\c1cccn1-c1ccc(Cl)cc1)S(=O)(=O)c1ccccc1 | -0.54 | 1.05
72 | O=C(c1cc2c(Cl)nc3ccccc3c2s1)N1CCC2(CC1)OCCO2 | 0.01 | 0.05
73 | CCOC(=O)c1c(C)c(NC(C)=O)c(C)n1C(C)=O | 0.115 | -0.55
74 | CCCn1c2ccccc2c2cnn(CC(=O)OC)c(=O)c21 | 35.3 | -1.35
75 | COc1ccc(-n2nnnc2-c2c[nH]c3ccc(Cl)cc23)cc1 | 0.635 | -0.25
76 | CCCc1nc(Sc2nncn2C)c2sc(=S)n(-c3ccccc3)c2n1 | -2.34 | 1.9
77 | COC(=O)c1ccc(/C=C2/SC(=O)N(C(C)C(=O)OC)C2=O)cc1 (stereo unspecified) | 0.045 | 0.1
78 | CCSc1nc2c(c(=O)[nH]1)C(c1ccccc1)C1=C(CCCC1=O)N2 (stereo unspecified) | 0.69 | ·
79 | NC(=O)CSc1nnc(-c2c[nH]c3ccccc23)n1-c1ccc(F)cc1 | -0.805 | 2.75
80 | O=C(CCC(=O)N1CCC(N(C2CC2)S(=O)(=O)c2cccc(C(F)(F)F)c2)CC1)NCC1CCCO1 (stereo unspecified) | -0.58 | ·
81 | O=C(NCCCn1ccnc1)c1cc2nc(-c3ccc(Cl)cc3)cc(C(F)(F)F)n2n1 | 1.87 | ·
82 | CC(=O)N1CCN(Cc2ccccc2F)CC1 | 0.02 | -0.6
83 | CN(C)S(=O)(=O)Oc1ccc(C(=O)Nc2cccc(Cl)c2)cc1 | 0.07 | ·
84 | Cc1cc(=O)[nH]c(NCc2ccccc2)n1 | -0.2 | 0.1
85 | Cc1ccccc1-n1c2nc(C#N)c(C#N)nc2c2c1nc(C(C)C)n1c3ccccc3nc21 | 0.085 | 0.05
86 | CCOC(=O)N1CCC(n2c(SCC(=O)NCc3ccccc3)nc3ccccc3c2=O)CC1 | 0.365 | 0.5
87 | O=c1c(OCCc2ccccc2)c(-c2ccco2)oc2ccccc12 | 15.2 | -0.15
88 | CCc1ccccc1NC(=O)CC1Nc2ccccc2NC1=O (stereo unspecified) | 0.245 | 0.7
89 | O=C(NC(=O)c1ccc(-c2cccs2)s1)SCc1cccs1 | 74.4 | 0.45
90 | O=C(CCS(=O)(=O)c1ccccc1)Nc1ccc2sccc2c1 | · | 2.25
91 | Cc1ccc2oc(=O)n(CCOc3ccccc3)c2c1 | -0.285 | -1.9
92 | Cc1cc(OC(=O)c2c(-c3c(Cl)cccc3Cl)noc2C)n(-c2ccccc2)n1 | -0.2 | ·
93 | O=C(c1ccc2c(c1)N(Cc1ccccc1)C(=O)c1ccccc1S2=O)N1CCN(Cc2ccccc2)CC1 (stereo unspecified) | -0.03 | 0.65
94 | Cc1ccc(-c2noc(COC(=O)c3nn(-c4ccccc4C(F)(F)F)cc3O)n2)cc1 | · | -0.7
95 | C/C(=C\c1nsc(Nc2ccccc2)n1)NCCc1ccccc1 | 0.07 | ·
96 | NCCN1C(=O)S/C(=C\c2ccc(Cl)c(Cl)c2)C1=O | · | 0.2
97 | COc1cc(C=C2C(=O)NC(=O)NC2=O)ccc1OS(=O)(=O)c1ccccc1 | -0.545 | ·
98 | COc1ccc(C2C3=C(Nc4ncnn42)c2ccccc2OC3c2cccc([N+](=O)[O-])c2)cc1 (stereo unspecified) | -0.24 | ·
99 | CCOC(=O)CSc1nc2sc3c(c2c(=O)n1-c1ccccc1)CCN(C)C3 | 69.1 | ·
100 | COc1ccc(N=Cc2cc(Br)ccc2O)c(S(=O)(=O)N2CCOCC2)c1 | · | 0.25
101 | COc1ccc(/C=C2\CN(C)CC3=C2OC(N)=C(C#N)C3c2ccc(OC)c(OC)c2)cc1OC (stereo unspecified) | -0.105 | ·
102 | COc1cccc(NC(=O)NCCCNc2nc3cc(C)cc(C)c3cc2C#N)c1 | · | 1
103 | Cc1nnc(SCN2C(=O)c3ccccc3C2=O)n(N)c1=O | · | 2.15
104 | Cc1ccc(NC2(C#N)C(=O)Nc3ccccc32)cc1C (stereo unspecified) | -0.295 | -1.5
105 | Nc1nnc(SCC(=O)Nc2ccc(NC(=O)CSc3nnc(N)s3)c(Cl)c2)s1 | -0.21 | ·
106 | COc1ccc(/C=C/C(=O)OCC(=O)N2CC(C)CC(C)C2)cc1 (stereo unspecified) | · | -0.5
107 | COC(=O)CSc1nnc(C2CCCCC2)n1Cc1ccccc1 | · | 1.8
108 | CCSC1=C(C#N)C(=O)NC(/C=C/c2ccccc2)S1 (stereo unspecified) | 1.7 | 0.15
